Bioassay records from PubChem.
Tg IFNy HTS: T. gondii growth inhibition under IFN-gamma. activity change, negative = inhibition, %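 (about 20 µM by stock and volumes)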. actives 3.8% (n = 69,000). AID 1259416. Toxoplasma gondii growth in IFN-gamma-treated host cells; stronger effect = lower value; reference of the scale not given here;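 active means below -70%; inconclusive means fit judged invalid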;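 further: host cells are HeLa cells infected with Toxoplasma gondii; parasite growth read as luciferase light; one replicate is shown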
An asterisk follows results filed as active; & = joins results of further samples; ! = repeats disagree. These rows are one share of the data; the hit share may differ from the screen's.

`CCc1cc(-c2cccc3ccnn23)nc(N2CCOCC2)n1` gave Tg IFNy HTS 22.0.
CN(C)c1nc(N2CCCC2)nc2c1CCN(c1ncc(F)cn1)CC2 was read as Tg IFNy HTS -14.8.
Cc1ccoc1C(=O)N1CCC(c2n[nH]c(=O)n2Cc2ccccc2)CC1 was read as Tg IFNy HTS -50.4.
`CCc1nc(C)sc1CN1CC2(CCNCC2)CC1C(=O)O` (stereo not drawn) gave Tg IFNy HTS -7.5.
Nc1c(C(=O)N2CCOCC2)sc2nc3c(cc12)CCCCC3 was read as Tg IFNy HTS 7.0.
COc1ccc(CCN2C(=O)CSC2c2ccc(OC)c(OC)c2)cc1OC (stereo not drawn) was read as Tg IFNy HTS -28.9.
Cc1ccn(CCNc2cc(C3CCNCC3)nc(C)n2)n1 was read as Tg IFNy HTS -3.6.
`c1cc(-c2nccn2CCCc2nn[nH]n2)cc(-n2cccn2)c1` gave Tg IFNy HTS -1.1.
Screening O=C(Nc1ccc2c(c1)Cc1ccccc1-2)c1cccc2ccccc12 returned Tg IFNy HTS -3.4.
`COc1cccc(S(=O)(=O)N(C)C[C@@H]2Oc3cc(Br)ccc3S(=O)(=O)N([C@@H](C)CO)C[C@@H]2C)c1` gave Tg IFNy HTS inconclusive.
For O=C(Cn1c(=O)cc(C(=O)N2CCCC2)c2ccccc21)Nc1ccc(Cl)cc1 the results were Tg IFNy HTS 7.2.
CN(C)CCO[C@H]1CN(c2ncccn2)[C@H]2COC[C@@H]12 was read as Tg IFNy HTS 81.2.
`O=C(C1CCN(c2cnc3nccnc3c2)CC1)N1CCC(N2CCCCC2)CC1` gave Tg IFNy HTS 67.1.
Screening COc1ccc2[nH]cc(C(=O)CCl)c2c1 returned Tg IFNy HTS -26.1.
Screening CN1CC2(CCN(C(=O)c3[nH]ncc3Cl)CC2)CC1C(=O)O (stereo not drawn) returned Tg IFNy HTS -3.1.
`N=C(N)c1ccc2cc(OC(=O)c3ccc(N=C(N)N)cc3)ccc2c1` gave Tg IFNy HTS 9.8.
`Cc1ccccc1-c1cnc2c(c1)C(=O)N([C@@H](C)CO)C[C@@H](C)[C@H](CN(C)Cc1ccccc1F)O2` gave Tg IFNy HTS -34.2.
`Cc1cccc(CNC(=O)c2cc3cc(S(=O)(=O)N(C)C)ccc3n2Cc2ccncc2)c1` gave Tg IFNy HTS -36.0.
For O=C(c1ccco1)N1CCN(C(=O)c2cc3cccnc3n(Cc3ccccc3)c2=O)CC1 the results were Tg IFNy HTS -9.4.
For Cc1cccc(CN2CCOCC3(CCN(c4ccccn4)C3)C2)n1 (stereo not drawn) the results were Tg IFNy HTS -42.8.
`Cc1ccc2[nH]cc(-c3cncnc3)c2c1` gave Tg IFNy HTS -5.5.
For COc1ccc(-c2nc(Cn3nnc(C(=O)Nc4cc(Cl)ccc4C)c3C)c(C)o2)c(OC)c1 the results were Tg IFNy HTS 114.8.
For Cc1cc(C)nc(Nc2ccccc2C(=O)O)n1 the results were Tg IFNy HTS -8.4.
Screening O=C1CN(C(=O)c2cn[nH]n2)C(c2ccccc2)c2ccccc2N1 (stereo not drawn) returned Tg IFNy HTS 2.4.
Screening CN(Cc1ccco1)Cc1cn(-c2ccccc2)nc1-c1ccc2c(c1)OCO2 returned Tg IFNy HTS -17.2.
For COc1ccc(S(=O)(=O)NCCc2csc(-c3cccc(F)c3)n2)cc1C the results were Tg IFNy HTS 5.2.
Cc1cccc(CN2C[C@@H]3CN(Cc4nccn4C)C[C@H]3C2=O)c1 was read as Tg IFNy HTS 4.5.
CCc1nc(OCC(=O)Nc2c(C)cccc2C)c2ccccc2n1 was read as Tg IFNy HTS 7.5.
O=C(NC1=NCCCN1)c1c(Cl)cccc1Cl was read as Tg IFNy HTS -20.6.
CC(C)(C)n1ccc(C(=O)N2C[C@@H](C(=O)O)C[C@@H](C(=O)NC3CC3)C2)c1 was read as Tg IFNy HTS -49.2.
Screening O=C(N[C@H]1COC[C@@H]1N1CCCC1)c1cc(COc2cccc(F)c2)[nH]n1 returned Tg IFNy HTS 5.8.
`CO[C@H]1CN(C)C(=O)c2ccc(NS(=O)(=O)CC(F)(F)F)cc2OC[C@H](C)N(C(=O)NC(C)C)C[C@@H]1C` gave Tg IFNy HTS 46.0.
`CCOCCCNC(=O)c1nc(Nc2ccc(C)cc2)c2ccccc2n1` gave Tg IFNy HTS -54.7.
Screening C[C@H](CO)N1C[C@H](C)[C@H](CN(C)Cc2ccc3c(c2)OCO3)OCCCC[C@H](C)Oc2ccc(NS(=O)(=O)c3cn(C)cn3)cc2C1=O returned Tg IFNy HTS 111.0.
`Cc1cc(C)c(S(=O)(=O)N2CCC3(CC2)Nc2ccccc2-n2cccc23)cc1C` gave Tg IFNy HTS -68.1.
For CN(CCc1ccccc1)C1CCCN(C(=O)c2ncccc2O)C1 (stereo not drawn) the results were Tg IFNy HTS 10.3.
`Cc1nccn1Cc1ccccc1C(=O)N1CCN(CCOC(C)C)CC1` gave Tg IFNy HTS -0.1.
Screening COc1ccc(S(=O)(=O)Nc2ccc3c(c2)C(=O)N([C@@H](C)CO)C[C@H](C)[C@H](CN(C)C(=O)Nc2c(C)noc2C)OCCCC[C@H](C)O3)cc1 returned Tg IFNy HTS -67.6.
Screening CCOc1ccc(C(=O)N2CCCC3(C2)Nc2cccnc2NC3=NC2CCCC2)cc1 (stereo not drawn) returned Tg IFNy HTS -55.5.
`COc1ccc(CNC2(c3ccccc3F)CCCC2)cc1Cn1nc(C)cc1C` gave Tg IFNy HTS -65.9.
COc1ccccc1-c1ccc2c(c1)O[C@H](CN(C)CC1CCOCC1)[C@@H](C)CN([C@@H](C)CO)S2(=O)=O was read as Tg IFNy HTS -19.2.
`CN(C)C(=O)CN1CCC2(CC1)CN(CCn1cccn1)C(=O)CO2` gave Tg IFNy HTS -3.9.
For Cc1oc(-c2ccccc2Cl)nc1Cn1cnc2nc3c(cc2c1=O)CC(C)CC3 (stereo not drawn) the results were Tg IFNy HTS 46.7.
NC(=O)c1cnc2n1CCN(C(=O)CCc1nc3ccccc3s1)C2 was read as Tg IFNy HTS -15.9.
Screening Cc1ccc(C)c2c1NC(=O)C2CC(=O)N(CCO)Cc1nccs1 (stereo not drawn) returned Tg IFNy HTS 0.9.
Oc1ccc([C@@H]2Oc3ccc(O)cc3[C@@H]3CCC[C@@H]32)cc1 was read as Tg IFNy HTS -5.5.
`COC(=O)c1c(NCCN2CCCc3ccccc32)c2cccc(Cl)c2[nH]c1=O` gave Tg IFNy HTS -3.8.
`CCc1cc(CNC(=O)c2ccc(C)c(-n3nc(C)cc3C)c2)on1` gave Tg IFNy HTS 12.7.
Screening CCCNC(=O)Nc1ccc2c(c1)C(=O)N(C)C[C@H](OC)[C@H](C)CN(C)[C@@H](C)CO2 returned Tg IFNy HTS 41.2.
`O=C(C1CCN(C2CCNCC2)CC1)N1CCOCC1` gave Tg IFNy HTS 3.4.
Screening O=C(O)c1ccc(-c2cccc(-c3ccn[nH]3)c2)o1 returned Tg IFNy HTS 2.2.
`CC(C)N1C[C@H]2C[C@@H](CC(=O)NCc3cccs3)O[C@@H]2C1` gave Tg IFNy HTS 175.2.
`Cc1noc2nc(C(C)C)cc(C(=O)NCc3ccc(CN4CCCC4=O)cc3)c12` gave Tg IFNy HTS 12.4.
CC1(C)Cc2ccccc2C(C(Cc2ccccc2)C(N)=O)=N1 (stereo not drawn) was read as Tg IFNy HTS 39.7.
Cc1cc(C(=O)N2CCN(C3CCCCC3)CC2)cc(S(N)(=O)=O)c1C was read as Tg IFNy HTS 16.4.
Screening Cc1nc(N2CCN(C)CC2)ncc1C(=O)N1[C@@H]2CC[C@H]1CNC(=O)C2 returned Tg IFNy HTS -0.3.
For CC1(C)CC[C@]2(C(=O)O)CC[C@]3(C)C(=CC[C@@H]4[C@@]5(C)CC[C@H](O)C(C)(C)[C@@H]5CC[C@]43C)[C@@H]2C1 the results were Tg IFNy HTS -72.0*!.
For CN(C)c1ncnc2c1CCN(C(=O)c1ccc3[nH]ccc3c1)CC2 the results were Tg IFNy HTS 5.0.
COc1ccc(-c2nc(C)c(CCNS(=O)(=O)c3ccc(F)c(C(F)(F)F)c3)s2)cc1 was read as Tg IFNy HTS inactive.
O=C(NCCc1c[nH]c2ccccc12)Nc1ccccc1 was read as Tg IFNy HTS 35.9.
For Cc1nc(C2CCCN(C(=O)CCc3ccc4c(c3)n(C)c(=O)n4C)C2)ncc1C(N)=O (stereo not drawn) the results were Tg IFNy HTS 13.4.
Screening CO[C@@H](CN(C)S(=O)(=O)c1ccc(C)cc1)[C@@H](C)CN(C(=O)Nc1ccccc1F)[C@@H](C)CO returned Tg IFNy HTS -4.1.
For COc1ccc(NC(=O)C(=O)NCCc2sc(-c3ccc(C)cc3)nc2C)cc1OC the results were Tg IFNy HTS 12.4.
Screening c1csc(C2CC3(CS2)Nc2ccccc2S3)c1 (stereo not drawn) returned Tg IFNy HTS 138.0.
For CN1CC(=O)N(c2ccccc2)CC12CCN(C(=O)c1cccn1C)C2 (stereo not drawn) the results were Tg IFNy HTS 4.3.
Screening O=C(C[C@H]1CC[C@@H]2NC[C@@H](O)COC[C@H]2O1)N1CCc2ccccc2C1 returned Tg IFNy HTS -12.5.
For CCCNC(=O)C[C@H]1CC[C@@H]2[C@H](COC[C@H](O)CN2C(=O)Nc2ccc(Cl)c(Cl)c2)O1 the results were Tg IFNy HTS -48.6.
Screening CS(=O)(=O)Nc1ccc2[nH]cc(C#N)c2c1 returned Tg IFNy HTS 59.2.
`COc1nc(OC)nc(N2CC[C@@H](c3ccc4c(c3)OCO4)[C@H](O)C2)n1` gave Tg IFNy HTS -19.1.
For Cc1noc(C)c1NC(=O)N(C)C[C@H]1OCc2cn(nn2)CCCC(=O)N([C@H](C)CO)C[C@H]1C the results were Tg IFNy HTS 199.9.
`Cc1c(C(=O)O)oc2c1C(=O)CC(C)(C)C2` gave Tg IFNy HTS -21.0.
For Cc1ccn2cc(-c3ccc4c(c3)CC(C)N4S(C)(=O)=O)cc2c1 (stereo not drawn) the results were Tg IFNy HTS 72.4.
Screening O=C(c1cccnc1)N1CC2CN(C(=O)c3cnccn3)CC2C1 (stereo not drawn) returned Tg IFNy HTS 0.2.
For CCSc1nc(CC(=O)N(C)Cc2cc3cc(F)ccc3[nH]2)cs1 the results were Tg IFNy HTS 8.0.
Screening Cc1noc(CN(C)Cc2nc(-c3cccc(Cl)c3)oc2C)n1 returned Tg IFNy HTS 10.9.
Screening Cc1ccc2c(ccc(=S)n2C)c1 returned Tg IFNy HTS -18.8.
Screening COc1ccc(C2CCCN2C(=O)c2ccc(F)c(-n3nc(C)cc3C)c2)cc1OC (stereo not drawn) returned Tg IFNy HTS -7.3.
COc1ccccc1-c1ccc(C2[C@H]3CNC[C@@H]2N3S(=O)(=O)c2ccc(F)cc2)cc1 (stereo partly drawn) was read as Tg IFNy HTS -40.8&-14.1.
COc1ccc(F)cc1S(=O)(=O)NCCc1csc(-c2cccc(F)c2)n1 was read as Tg IFNy HTS 49.7.
CCOC(=O)c1sc(SC)c(C#N)c1N was read as Tg IFNy HTS -17.0.
For CCOC(=O)c1sc(NC(=O)CSc2nnc(-c3ccco3)o2)nc1C the results were Tg IFNy HTS 2.5.
`CS(=O)(=O)N1C[C@@H]2COC[C@@]2(COc2ncccc2F)C1` gave Tg IFNy HTS 5.9.
For CCc1ccc2oc(=O)cc(CN3CCN(Cc4nc(-c5cccc(C)c5)oc4C)CC3)c2c1 the results were Tg IFNy HTS 17.3.
CCn1nnc2c1CCN(C(=O)CC1=CCCCC1)C2COC (stereo not drawn) was read as Tg IFNy HTS -16.3.

Among those listed so far, these have a cyano group:
Screening CS(=O)(=O)Nc1ccc2[nH]cc(C#N)c2c1 returned Tg IFNy HTS 59.2.
CCOC(=O)c1sc(SC)c(C#N)c1N was read as Tg IFNy HTS -17.0.

The list goes on:
Screening COC(=O)CC1(C(=O)OC)Oc2ccc(Cl)cc2C(=O)N1c1ccc(F)cc1F (stereo not drawn) returned Tg IFNy HTS -70.5*.
O=C(Nc1ccc(Cl)cc1)Nc1ccc(-c2nc(-c3ccccc3)co2)cc1 was read as Tg IFNy HTS 2.4.
`Cn1cc(-c2nc(C3CCN(C(=O)c4cccnc4)CC3)cc3c2ncn3C)cn1` gave Tg IFNy HTS -1.6.
Screening CS(=O)(=O)N1CCC2O[C@H](COCc3ccccn3)CCC21 (stereo partly drawn) returned Tg IFNy HTS -0.3.
Screening O=C1CC2(CCN(C(=O)c3cccc(Cl)c3)CC2)CN1 returned Tg IFNy HTS -3.7.
`Cc1nc2ccccn2c1C(=O)N1CCCC(Cn2cc(C3CC3)nn2)C1` (stereo not drawn) gave Tg IFNy HTS 26.9.
Screening O=C(Cn1ncc2c(N3CCOCC3)ncnc21)NCc1cccc(Cl)c1 returned Tg IFNy HTS 63.0.
Screening COCCNC(=O)C1(C)CCC(=O)N1CCc1c[nH]c2ccccc12 (stereo not drawn) returned Tg IFNy HTS 4.6.
For O=S1(=O)N=S(c2ccccc2)c2ccccc21 (stereo not drawn) the results were Tg IFNy HTS -13.4.

Gathered by group: the entries above containing two or more sulfur atoms.
`COc1cccc(S(=O)(=O)N(C)C[C@@H]2Oc3cc(Br)ccc3S(=O)(=O)N([C@@H](C)CO)C[C@@H]2C)c1` gave Tg IFNy HTS inconclusive.
For COc1ccc(S(=O)(=O)NCCc2csc(-c3cccc(F)c3)n2)cc1C the results were Tg IFNy HTS 5.2.
COc1ccc(-c2nc(C)c(CCNS(=O)(=O)c3ccc(F)c(C(F)(F)F)c3)s2)cc1 was read as Tg IFNy HTS inactive.
Screening c1csc(C2CC3(CS2)Nc2ccccc2S3)c1 (stereo not drawn) returned Tg IFNy HTS 138.0.
For CCSc1nc(CC(=O)N(C)Cc2cc3cc(F)ccc3[nH]2)cs1 the results were Tg IFNy HTS 8.0.
COc1ccc(F)cc1S(=O)(=O)NCCc1csc(-c2cccc(F)c2)n1 was read as Tg IFNy HTS 49.7.
CCOC(=O)c1sc(SC)c(C#N)c1N was read as Tg IFNy HTS -17.0.
For CCOC(=O)c1sc(NC(=O)CSc2nnc(-c3ccco3)o2)nc1C the results were Tg IFNy HTS 2.5.
For O=S1(=O)N=S(c2ccccc2)c2ccccc21 (stereo not drawn) the results were Tg IFNy HTS -13.4.
